Insulin prom inh = inhibitors of insulin promoter-driven GFP, primary screen, imaging, TRM-6 cells (human fetal islet line), eGFP reporter, cell count; reporter expression induced with tamoxifen; inhibition, % at 2 µM; 130,000 tested, 0.9% active; AID 1273, 2008;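 active means inhibition above the mean plus 3 SD, with well images judged a real hit on visual review, cut at about 60% in these data, passing the limit was not always enough; inconclusive means inhibition over the cutoff but images rejected on review; inactive means inhibition not above the cutoff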
PKD1 inh = inhibitors of human PKD1 kinase, biochemical, fluorescence polarization. inhibition, %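 (about 10 µM by stock and volumes)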. PKD1 kinase fluorescence polarization assay. 200,000 tested, 0.056% active. AID 797, 2007. Serine/threonine-protein kinase D1 (Homo sapiens), Q15139;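 active means inhibition of 50% or more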;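 further: controls were vehicle for no effect and a reference inhibitor for full effect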
GALR2 agonist = GALR2 receptor agonists, primary screen, cell-based; GALR2-expressing cells, agonist activation read-out; activation, %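 (tested at 5 µM)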; 140,000 tested, 0.48% active;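 active means above mean plus 3 SD of all compounds, about 5% in these data, not always enough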;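 further: 0% = vehicle buffer wells and 100% = reference agonist at full effect; tested in CHO reporter cells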
Target sequence (O43603 whole entry, looked up): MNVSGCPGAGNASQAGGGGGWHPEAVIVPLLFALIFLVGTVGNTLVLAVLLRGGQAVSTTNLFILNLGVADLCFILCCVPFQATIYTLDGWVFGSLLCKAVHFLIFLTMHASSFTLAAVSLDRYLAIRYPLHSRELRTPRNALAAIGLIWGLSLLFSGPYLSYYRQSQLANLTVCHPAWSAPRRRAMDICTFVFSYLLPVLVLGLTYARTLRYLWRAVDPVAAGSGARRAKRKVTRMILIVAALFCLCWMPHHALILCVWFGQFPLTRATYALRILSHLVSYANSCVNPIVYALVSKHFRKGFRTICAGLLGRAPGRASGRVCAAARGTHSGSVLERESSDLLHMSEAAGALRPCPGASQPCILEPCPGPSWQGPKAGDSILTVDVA
HSV replic up = enhancers of HSV replication in host cells, fold increase, host cell viability | HSV replication augmentation in cells | maximum fold increase | 220,000 tested, 0.005% active;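 active means peak rise of 1.5-fold or more in the series; inconclusive means self-fluorescent or not available for retest; tested in PC3 cells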;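 further: first round at 10 µM; read as green reporter fluorescence; hits show the peak of a series up to 25 µM; 1 = signal of infected wells without compound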
RGS16-Gao = modulators of RGS16 binding to Galphao, primary screen, biochemical, human proteins, multiplexed bead flow cytometry; Regulator of G-protein signaling 16 (Homo sapiens) + Guanine nucleotide-binding protein …; bead-based flow cytometry RGS16-Galphao binding, fluorescence; actives lie on both sides; binding response (% of control), % at 10 µM; 220,000 tested, 0.38% active;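 active means below 25% or above 175%, edge rows of some plates excepted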;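 further: Galphao activated by GDP with aluminum fluoride before binding; 100% = wells without compound and 0% = beads without RGS; some results beyond the cut were filed as inactive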
Target sequence (O15492 whole entry, looked up): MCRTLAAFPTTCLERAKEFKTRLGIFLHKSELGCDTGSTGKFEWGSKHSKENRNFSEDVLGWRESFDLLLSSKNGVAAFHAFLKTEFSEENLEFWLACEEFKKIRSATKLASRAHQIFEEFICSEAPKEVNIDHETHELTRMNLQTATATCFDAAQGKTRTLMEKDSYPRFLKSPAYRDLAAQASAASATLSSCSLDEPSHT
Target sequence (P09471 whole entry, looked up): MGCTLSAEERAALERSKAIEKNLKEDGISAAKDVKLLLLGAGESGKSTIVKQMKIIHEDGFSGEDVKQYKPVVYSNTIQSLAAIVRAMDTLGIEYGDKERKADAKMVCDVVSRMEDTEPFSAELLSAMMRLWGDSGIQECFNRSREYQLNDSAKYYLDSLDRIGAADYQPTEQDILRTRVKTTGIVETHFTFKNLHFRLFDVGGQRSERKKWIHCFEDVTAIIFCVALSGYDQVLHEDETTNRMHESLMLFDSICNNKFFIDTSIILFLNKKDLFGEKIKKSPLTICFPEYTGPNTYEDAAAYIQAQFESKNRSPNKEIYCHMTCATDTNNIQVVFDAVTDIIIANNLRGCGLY
Insulin prom inh cell count = also measured in Insulin prom inh; calls as there; normalized cell count, %; measured here: cell count, toxicity; reference of the scale not given here;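 cells exposed to compound for 48 h; stained nuclei by imaging scaled within each plate; lower means fewer cells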
HSV replic up primary fold = second read-out of HSV replic up, no call of its own (marks repeat the call); fold increase; compound at 10 µM; measured here: primary screen fold increase 10 uM; tested in PC3 cells;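 GFP signal in the first replicate; 1 = infected wells without compound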
The depositor's hits bear a star; i = inactive; ? = inconclusive; . = no result given. Compounds were not picked by outcome; about 1.3% have a hit in one of these screens.

| SMILES | Insulin prom inh | HSV replic up | HSV replic up primary fold | GALR2 agonist | Insulin prom inh cell count | PKD1 inh | RGS16-Gao |
| --- | --- | --- | --- | --- | --- | --- | --- |
| O=C1CC(SCCc2nc3ccccc3[nH]2)C(=O)N1c1ccc(F)cc1 (centres undefined) | 3 | i | 1 | -0.9 | 72 | -11 | 101 |
| CN1CCNC(=O)C1CC(=O)NCCC1=CCCCC1 (centres undefined) | . | i | 1 | . | . | 3 | 97 |
| Cc1ccc(NC(=O)CSc2nc3ccccc3c(=O)n2CCCC(=O)NCCCN2CCOCC2)cc1C | -50 | i | 0.85 | . | 122 | -2 | 101 |
| COc1ccc(NC(=O)CC23CC4CC(C2)CC(n2nnc(C)n2)(C4)C3)cc1 | -13 | i | 1 | . | 87 | 1 | 101 |
| NS(=O)(=O)c1ccc(NC(=S)NCc2ccc(Cl)cc2)cc1 | 35 | i | 0.85 | -1.8 | 193 | -4 | 71 |
| CSC(=Nc1ccc(Cl)cc1)N[n+]1ccccc1 | -15 | i | 1 | -0.1 | 51 | 2 | 37 |
| CCOCC(=O)Nc1nnc(C)s1 | 36 | i | 1.1 | -3.8 | 96 | -6 | 103 |
| Nc1nc(Cl)c(C=O)c(N2CCCCC2)n1 | 0 | i | 0.93 | . | 176 | -2 | 108 |
| COc1cc(C2C(C#N)=C(N)Oc3cc(O)ccc32)cc2c1OCO2 (centres undefined) | -152 | i | 0.93 | -0.6 | 85 | -3 | 99 |
| O=C(/C=C/c1ccc(OCCCF)cc1)Nc1ccnc(-c2cccnc2)n1 | -20 | i | 1.3 | . | 140 | 0 | 107 |

Ordered by value in PKD1 inh (rising): some entries from above
Compound	HSV replic up primary fold	GALR2 agonist	PKD1 inh	RGS16-Gao
O=C1CC(SCCc2nc3ccccc3[nH]2)C(=O)N1c1ccc(F)cc1 (centres undefined)	1	-0.9	-11	101
NS(=O)(=O)c1ccc(NC(=S)NCc2ccc(Cl)cc2)cc1	0.85	-1.8	-4	71
O=C(/C=C/c1ccc(OCCCF)cc1)Nc1ccnc(-c2cccnc2)n1	1.3	.	0	107

Further results.
| SMILES | Insulin prom inh | HSV replic up | HSV replic up primary fold | GALR2 agonist | Insulin prom inh cell count | PKD1 inh | RGS16-Gao |
| --- | --- | --- | --- | --- | --- | --- | --- |
| COc1ccc2nc(COC(=O)c3cccc([N+](=O)[O-])c3)c(C(C)=O)[n+]([O-])c2c1 | . | i | 1 | . | . | . | 111 |
| CCCS(=O)(=O)N1CCCC(C(=O)NCc2cccnc2)C1 (centres undefined) | . | i | 0.98 | 0.3 | . | -9 | 98 |
| CC(C)CCn1nnnc1CN1CCN(c2ccccc2)CC1 | . | i | 0.99 | . | . | -5 | 98 |
| O=C(NC1CCCC1)c1ccc(CSCc2ccccc2F)o1 | -16 | i | 1.1 | -1.5 | 98 | -10 | 100 |
| Cc1ccc(NC(=S)N2CCCC(c3ccccc3)=N2)cc1 | . | i | 1.1 | . | . | . | 98 |
| N/C(=N\OC(=O)c1ccccc1Cl)c1ccncc1 | . | i | 1.1 | . | . | -7 | 99 |
| Nc1ccc(N2CCCCCC2)cc1 | -129 | i | 0.79 | -2.5 | 56 | -13 | 65 |
| Cc1cc(O)ccc1Nc1nc(-c2cccs2)cs1 | 19 | i | 0.99 | . | 142 | -10 | 100 |
| COc1cc(OC)nc(NC(=O)CSc2nc3ccccc3[nH]2)n1 | 0 | i | 0.87 | -2.8 | 113 | -14 | 94 |
| COCCCN(C(=S)Nc1cc(C)cc(C)c1)C(C)c1ccncc1 (centres undefined) | -22 | i | 1 | -0.3 | 153 | -12 | 107 |
| CCOC(=O)c1ccccc1NC(=O)CSc1nc2ccccc2o1 | -2 | i | 0.97 | -0.9 | 122 | -6 | 98 |
| COc1cc(C)c(NC(=O)C(=S)NCc2ccccc2)cc1C | . | i | 0.88 | . | . | -10 | 106 |
| COC(=O)Cn1c(C)nc([N+](=O)[O-])c1Br | 33 | i | 0.87 | . | 137 | 3 | 102 |
| Cc1oc(-c2ccccc2)nc1CS(=O)CC(=O)O (centres undefined) | . | i | 1 | -1.8 | . | -5 | 72 |
| S=C(Nc1ccc(OCc2ccccc2)cc1)Nc1cccc(Cl)c1Cl | . | i | 1 | -1.8 | . | 10 | 103 |
| CCOC(=O)c1ccccc1NC(=O)Cn1cnc2c(cnn2-c2ccc(F)cc2)c1=O | -15 | i | 0.9 | -1.3 | 86 | 9 | 98 |
| CCOC(=O)c1cc(C)nc(SC)c1C#N | . | i | 1 | . | . | . | 97 |
| O=C(CCc1ccccc1)Nc1ccc2c(c1)OCCO2 | -27 | i | 1 | -0.2 | 62 | -1 | 96 |
| O=C(Nc1cc(Sc2nc3ccccc3s2)cc([N+](=O)[O-])c1)c1ccccc1 | 7 | i | 0.86 | 0.1 | 89 | -2 | 69 |
| NS(=O)(=O)c1ccc(N=Nc2c[nH]c(=O)c(O)c2)cc1 | . | ? | . | . | . | . | 105 |

Rewritten with two lines to a compound: entries from further up
The line under a structure holds: Insulin prom inh | HSV replic up | HSV replic up primary fold | GALR2 agonist | Insulin prom inh cell count | PKD1 inh | RGS16-Gao
> CCCS(=O)(=O)N1CCCC(C(=O)NCc2cccnc2)C1 (centres undefined)
    . | i | 0.98 | 0.3 | . | -9 | 98
> CC(C)CCn1nnnc1CN1CCN(c2ccccc2)CC1
    . | i | 0.99 | . | . | -5 | 98
> O=C(NC1CCCC1)c1ccc(CSCc2ccccc2F)o1
    -16 | i | 1.1 | -1.5 | 98 | -10 | 100
> Cc1ccc(NC(=S)N2CCCC(c3ccccc3)=N2)cc1
    . | i | 1.1 | . | . | . | 98
> N/C(=N\OC(=O)c1ccccc1Cl)c1ccncc1
    . | i | 1.1 | . | . | -7 | 99
> Nc1ccc(N2CCCCCC2)cc1
    -129 | i | 0.79 | -2.5 | 56 | -13 | 65
> Cc1cc(O)ccc1Nc1nc(-c2cccs2)cs1
    19 | i | 0.99 | . | 142 | -10 | 100
> COc1cc(OC)nc(NC(=O)CSc2nc3ccccc3[nH]2)n1
    0 | i | 0.87 | -2.8 | 113 | -14 | 94
> COCCCN(C(=S)Nc1cc(C)cc(C)c1)C(C)c1ccncc1 (centres undefined)
    -22 | i | 1 | -0.3 | 153 | -12 | 107
> CCOC(=O)c1ccccc1NC(=O)CSc1nc2ccccc2o1
    -2 | i | 0.97 | -0.9 | 122 | -6 | 98
> COc1cc(C)c(NC(=O)C(=S)NCc2ccccc2)cc1C
    . | i | 0.88 | . | . | -10 | 106
> COC(=O)Cn1c(C)nc([N+](=O)[O-])c1Br
    33 | i | 0.87 | . | 137 | 3 | 102
> Cc1oc(-c2ccccc2)nc1CS(=O)CC(=O)O (centres undefined)
    . | i | 1 | -1.8 | . | -5 | 72
> S=C(Nc1ccc(OCc2ccccc2)cc1)Nc1cccc(Cl)c1Cl
    . | i | 1 | -1.8 | . | 10 | 103
> CCOC(=O)c1ccccc1NC(=O)Cn1cnc2c(cnn2-c2ccc(F)cc2)c1=O
    -15 | i | 0.9 | -1.3 | 86 | 9 | 98
> CCOC(=O)c1cc(C)nc(SC)c1C#N
    . | i | 1 | . | . | . | 97

(further entries)
| SMILES | Insulin prom inh | HSV replic up | HSV replic up primary fold | GALR2 agonist | Insulin prom inh cell count | PKD1 inh | RGS16-Gao |
| --- | --- | --- | --- | --- | --- | --- | --- |
| NC(=O)N/N=C/c1ccccc1OC(=O)c1ccccc1Br | . | i | 0.88 | . | . | 1 | 106 |
| COc1ccc(C(C[N+](=O)[O-])C2(c3ccc(OC)c(OC)c3)C(=O)c3ccccc3C2=O)cc1 (centres undefined) | 0 | i | 0.86 | 4.8 | 137 | -6 | 92 |
| CCCNC(=O)Cc1c(O)c2ccccc2[nH]c1=O | 41 | i | 1 | -1.7 | 84 | -10 | 87 |
| CC(C)c1ccc(Nc2nnc(SCC(=O)c3nnc(-c4ccccc4)o3)s2)cc1 | -40 | i | 1.1 | -1.1 | 179 | -6 | 95 |
| CCCCCC1CCC(C(=O)O)CC1 (centres undefined) | 57 | i | 0.82 | -2.7 | 99 | -11 | 100 |
| CNC(=S)/N=C/NOCc1c(Cl)cccc1Cl | -4 | i | 0.96 | . | 100 | -4 | 99 |
| O=C(c1cc(C2CC2)nc2ccc(Br)cc12)N1N=C(C(F)F)CC1(O)C(F)F (centres undefined) | -108 | i | 0.92 | -1.9 | 68 | -2 | 39 |
| COc1ccc(-c2cc(C(F)(F)F)c(C#N)c(SCC(=O)Nc3ccccc3C#N)n2)cc1 | -46 | i | 1.1 | -3.3 | 91 | 1 | 469 |
| O=C(/C=C/c1cccc([N+](=O)[O-])c1)OC1CCCCC1=O (centres undefined) | -18 | i | 0.87 | . | 174 | -5 | 107 |
| CCn1cc(C(=O)N2CCc3ccccc32)c(=O)c2cc(S(=O)(=O)N3CCCC3)ccc21 | . | i | 0.87 | -0.2 | . | -6 | 104 |
| Cc1ccc(S(=O)(=O)N(CC(=O)N2CCC(C)CC2)Cc2ccccc2F)cc1 | 23 | i | 1 | -2.2 | 105 | -10 | 98 |
| CN(CCC1CCOCC1)Cc1cn[nH]c1-c1ccc(-c2ccccc2)cc1 | . | i | 0.91 | . | . | 3 | 105 |
| O=c1c2c3c(sc2nc(NCCO)n1CCc1ccccc1)CCCCC3 | -3 | i | 0.94 | -1.5 | 111 | 1 | 99 |
| COc1ccc(NC(=O)C(F)(F)F)cc1OC | -11 | i | 0.9 | -2.1 | 104 | -6 | 100 |
| CCOc1ccc(NC(=O)COC(=O)CCS(=O)(=O)c2ccc(C)cc2)cc1 | . | i | 1.1 | . | . | -4 | 113 |
| COC(=O)c1cc(C#N)c(Oc2ccccc2OC)nc1C | 6 | i | 0.96 | 1.2 | 97 | 1 | 119 |
| CCOC(=O)Cn1c(=N)n(CCOc2ccc(F)cc2)c2ccccc21 | . | i | 1.1 | . | . | . | 79 |
| CN1N=C(/C=C/c2ccccc2)CCC1=O | 66 | i | 0.97 | . | 74 | -3 | 84 |
| COc1ccc(/C=C(\NC(=O)c2ccc(C)cc2)C(=O)NCC2CCCO2)cc1 (centres undefined) | 17 | i | 0.95 | . | 131 | -2 | 103 |
| CC1CCN(C(=O)CSc2nnc(-c3cccnc3)n2C2CCCCC2)CC1 | 11 | i | 0.9 | 0.1 | 112 | 4 | 101 |
| Cc1cc(N2CCCC(C(=O)Nc3ccc4c(c3)CCC4)C2)n2ncnc2n1 (centres undefined) | . | i | 1.1 | 0.5 | . | -15 | 114 |
| CC(C)(C)c1cc(NC(=O)CSc2nnc(N)s2)n(-c2ccccc2)n1 | 6 | i | 0.99 | -2.1 | 66 | -4 | 93 |
| Cc1ccc(-n2nc(C)cc2Nc2ncc(Cl)cc2Cl)cc1 | . | i | 0.95 | -1.2 | . | 3 | 103 |
| Cc1ccc(OCC(=O)NN=C2c3ccccc3-c3ccccc32)cc1 | . | i | 0.98 | -0.2 | . | 3 | 97 |
| CCC/C(C)=C/c1ccc(CC)cn1 | . | i | 0.9 | . | . | . | 97 |
| COc1cc(OC)cc(C(=O)N[C@H](C(=O)Nc2nc(-c3ccc(F)c(F)c3)cs2)C(C)C)c1 | -38 | i | 0.96 | . | 118 | -4 | 105 |
| COc1ccc2c(c1)CCC/C2=N/OC(=O)c1ccccc1OC | . | i | 0.81 | . | . | -3 | 99 |
| COc1ccc(/C=C(/NC(=O)/C=C/c2ccccc2)C(=O)N2CCOCC2)cc1 | -12 | i | 0.93 | -0.9 | 83 | 4 | 99 |
| N#C/C(=C/c1ccco1)C(N)=S | . | i | 1.2 | . | . | . | 99 |
| CN1CCn2c1nc(N1CCOCC1)nc2=O | . | i | 0.86 | -4.7 | . | 5 | 100 |
| Cc1ccc(-n2c(C)cc(/C=N/Nc3ccc([N+](=O)[O-])cn3)c2C)c(C)c1 | -35 | i | 1.2 | -0.6 | 96 | -9 | 51 |
| CCN1CCCC(OC(=O)Nc2ccccc2)C1 (centres undefined) | . | i | 0.99 | -2.3 | . | 4 | 93 |
| O=C(CCCCCCC(=O)c1ccccc1)c1ccccc1 | 57 | i | 0.95 | . | 77 | 0 | 95 |
| Cn1c(SCC(=O)c2ccccc2)nnc1-c1ccncc1 | . | i | 0.89 | . | . | -3 | 95 |
| CCOC(=O)N1CCN(S(=O)(=O)c2cccc3cccnc23)CC1 | . | i | 1 | -1.0 | . | 1 | 95 |
| CC1CCCCC12NC(=O)N(CC(=O)NCc1ccc3c(c1)OCO3)C2=O (centres undefined) | 45 | i | 0.96 | . | 63 | -1 | 116 |
| O=C(COc1ccccc1[N+](=O)[O-])N/N=C/c1ccc[nH]1 | . | i | 1 | . | . | . | 109 |
| CCOC(=O)C1CCN(C(=O)CCc2c(C)nc3ncnn3c2C)CC1 | . | i | 0.88 | -1.7 | . | 0 | 96 |
